# D2 ag – Beta-Arrestin HTS for Positive Allosteric Modulators of the Human D2 Dopamine Receptor: Agonists. AID 624465, 2012. DiscoveRx PathHunter D2 beta-arrestin, luminescence, 90 min; 100% = 57 uM dopamine signal. activation, % (no concentration beside the values). 360,000 tested, 0.084% active. D(2) dopamine receptor (Homo sapiens), P14416; in the data active = activation above about 40%; inconclusive = about 15% to 40%; inactive = below about 15%; further: compound concentration not given in the record; the text of the record calls up to 30% inactive
# Target sequence (P14416 whole entry, looked up): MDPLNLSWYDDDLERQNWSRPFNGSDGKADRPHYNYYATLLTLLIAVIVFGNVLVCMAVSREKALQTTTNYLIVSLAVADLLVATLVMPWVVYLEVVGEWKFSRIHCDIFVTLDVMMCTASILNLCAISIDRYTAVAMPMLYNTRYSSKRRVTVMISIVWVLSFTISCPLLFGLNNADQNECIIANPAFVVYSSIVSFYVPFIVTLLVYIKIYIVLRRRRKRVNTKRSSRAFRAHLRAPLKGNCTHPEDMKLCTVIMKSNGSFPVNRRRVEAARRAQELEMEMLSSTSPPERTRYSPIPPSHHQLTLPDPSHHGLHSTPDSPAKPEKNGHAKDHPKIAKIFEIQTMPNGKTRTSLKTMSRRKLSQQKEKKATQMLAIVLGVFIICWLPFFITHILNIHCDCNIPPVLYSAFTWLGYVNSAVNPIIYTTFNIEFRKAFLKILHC
#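 Agonist mode: compounds alone added to overnight-plated D2 PathHunter cells for 90 min at 37 C, with 57 uM final dopamine (EC100) defining full response. Beta-arrestin recruitment detected by chemiluminescent reagent, read after 1 h at ambient temperature.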
# Six1-Eya2 inh – qHTS Assay for Inhibitors of the Six1/Eya2 Interaction; Homeobox protein SIX1 (Homo sapiens) + Protein phosphatase EYA2 (Homo sapiens), …; activity change, % (test concentration not listed); AID 651725, 2012; 360,000 tested, 0.56% active; AlphaScreen GST-Six1/His-Eya2 binding, biochemical; stronger effect = lower value; control for the full effect not named in the record; in the data active = activity change below about -65%; inconclusive = about -30% to -65%; inactive = above about -30%; further: on the % scale 0 is the no-effect control and ±100 the full control effect; compound concentration not given in the record
#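 Compounds are tested against tagged Six1 and Eya2 proteins bridged by glutathione donor and nickel acceptor beads; after a one-hour incubation at 37 °C without light, AlphaScreen emission is recorded.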
# PINK1 modulator – A Quantitative High throughput Screen to Identify Chemical Modulators of PINK1 Expression | Potency, µM (top dose mostly 76.6 µM), inactives show top-dose activation (PINK1 increase), most hits filed as activators | PINK1 immunofluorescence, high-content cytometry, 24 h | 410,000 tested, 0.2% active; active = well fitted activation curve with a large enough effect; inconclusive = small, poorly fitted or top-dose-only effect; inactive = flat fitted curve, though single readings scatter; cell line not stated here;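 further: potency means the concentration at half of the fitted maximal effect; % of control where 0% means no effect; nearly all actives have a fitted effect of over 65% in size; a mitochondrial uncoupler was the plate control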
#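 Compound titrations (5 concentrations, 24 h) on a stable cell line; DMSO and CCCP controls. Endpoint: fixed-cell PINK1 immunofluorescence with mitochondrial, cell and nuclear markers, scanned by microplate cytometer.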
# D2 potentiator – Beta-Arrestin HTS for Positive Allosteric Modulators of the Human D2 Dopamine Receptor: Potentiators. DiscoveRx D2 beta-arrestin cells, luminescence, 90 min; 100% = 57 uM dopamine signal. AID 624464, 2012. D(2) dopamine receptor (Homo sapiens), P14416. 360,000 tested, 0.23% active. potentiation, % (test concentration not listed); active = potentiation of 50% or more; inconclusive = 30% to 50%; inactive = 30% or less;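 further: compound concentration not given in the record; tested on top of an EC20 dose of dopamine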
#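 PathHunter D2 cells, attached overnight at 37 deg C, received compound in DMSO plus dopamine at EC20 (50 nM final) for 90 min at 37 deg C. Beta-arrestin recruitment was read as luminescence after 1 h with detection reagent at ambient temperature.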
# TRPML1 blocker – qHTS for Inhibitors of the Human Mucolipin Transient Receptor Potential 1 (TRPML1); 390,000 tested, 0.02% active; Mucolipin-1 (Homo sapiens), Q9GZU1; TRPML1-inducible cells, Ca2+ dye fluorescence, FDSS; stronger effect = lower value; inhibition of EC80 agonist-evoked calcium signal; activity change, negative = inhibition, % (test concentration not listed); in the data active means activity change below about -50%; inconclusive means about -30% to -50%; inactive means above about -30%;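 further: stimulus is agonist 54-4 at its EC80 concentration; on the % scale 0 is the no-effect control and ±100 the full control effect; compound concentration not given in the record; the text of the record puts the active cut at -80%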
# Target sequence (Q9GZU1 whole entry, looked up): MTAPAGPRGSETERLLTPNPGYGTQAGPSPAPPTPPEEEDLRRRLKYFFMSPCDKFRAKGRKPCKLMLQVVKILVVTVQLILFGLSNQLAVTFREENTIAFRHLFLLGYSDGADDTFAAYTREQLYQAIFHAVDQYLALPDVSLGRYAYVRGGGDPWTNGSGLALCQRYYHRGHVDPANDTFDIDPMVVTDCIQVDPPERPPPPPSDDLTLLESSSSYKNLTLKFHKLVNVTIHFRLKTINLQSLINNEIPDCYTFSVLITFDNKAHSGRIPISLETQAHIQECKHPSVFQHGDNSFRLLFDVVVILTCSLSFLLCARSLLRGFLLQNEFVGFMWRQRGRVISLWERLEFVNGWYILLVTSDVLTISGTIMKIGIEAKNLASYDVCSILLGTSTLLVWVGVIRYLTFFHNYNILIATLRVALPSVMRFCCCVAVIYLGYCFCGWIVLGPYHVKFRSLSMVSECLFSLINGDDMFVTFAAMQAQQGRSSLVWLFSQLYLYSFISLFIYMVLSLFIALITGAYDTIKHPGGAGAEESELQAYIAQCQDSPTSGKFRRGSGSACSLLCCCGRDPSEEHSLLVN
#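 TRPML1-DL cells, Tet-induced overnight (~16 h, 37 °C) at 1,500 cells/well, were loaded with Ca8 no-wash dye plus quencher for 45-90 min at room temperature. Compounds were pinned during FDSS kinetic reading; agonist 54-4 at EC80 (4 uM final) then added.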
# TRPML1 ag – qHTS for Agonists of the Human Mucolipin Transient Receptor Potential 1 (TRPML1); Mucolipin-1 (Homo sapiens), Q9GZU1; activation, % (test concentration not listed); 410,000 tested, 0.12% active; TRPML1-expressing cells, Ca2+ dye fluorescence, FDSS; host cell line not named in the record; reference of the full effect not given here; in the data active = activation above about 50%; inconclusive = about 30% to 50%; inactive = below about 30%; further: 0% is about no effect; the text of the record puts the active cut at 80%
#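 Tet-induced TRPML1-DL cells, 1,500 per well, cultured overnight, were loaded with a no-wash Ca2+ dye for 45–90 min. Calcium fluorescence was recorded on the FDSS for 110 s after compound addition, before the EC80 agonist (4 uM 54-4) was added.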
# * = called active by the depositor; ? = inconclusive; . = no result given; & = joins results of further samples; [ ] = another dose, or the depositor's remark.
canonical_smiles,D2 ag,Six1-Eya2 inh,PINK1 modulator,D2 potentiator,TRPML1 blocker,TRPML1 ag
COC(=O)C(Oc1ccc2c(-c3ccc(OC)cc3)cc(=O)oc2c1)c1ccccc1 (stereo not given),-5.1,-4,1.8%,-17,12,0.9
COc1cc(CN2CCC(C(=O)N3CCN(c4ccccc4F)CC3)CC2)cc(OC)c1O,2.2,1,-1.6%[38.3 µM],-13,-13,-0.3
COc1cccc(C(=O)NC(=S)Nc2ccc3oc(=O)ccc3c2)c1,-3.8,-10,0.4%,-24,-9,-0.5
Cc1ccc(CSCC(=O)N(C)CC(=O)Nc2ccc(C)cc2)cc1,-2.0,-1,-2.5%,-6,4,0.5
O=C(/C=C/c1ccco1)Oc1cccc2cccnc12,-3.9,-79*,1.1%,-12,15,-0.6
O=C(c1ccc(Cl)c(S(=O)(=O)N2CCOCC2)c1)N1CCCC1,-4.2,11,0.1%,5,24,0.9
O=NN1CCN(c2ccncc2S(=O)(=O)N2CCCCC2)CC1,1.2,11,-0.5%,-5,15,0.1
CCC(C(=O)NC(C)(C)C)N(C(=O)Cn1nnc(-c2cccs2)n1)c1cnc2ccccc2c1 (stereo not given),-1.4,2,1.4%,-9,-7,-0.3
COC(=O)c1ccc(-n2nnnc2SCc2nn[nH]n2)cc1,-4.9,1,0.8%,2,-4,0.8
Cc1cccc(-n2cnc(C(=O)N3CCN(C)CC3)c2)n1,-3.2,6,0.0%,-6,10,0.2
O=C1c2cccc3c2C2(O)c4c1cccc4C(=O)c1cccc(c12)C3=O,4.1,31,-0.1%,-2,-9,0.0
O=C(NCc1ccc2c(c1)OCO2)c1cc(-c2ccccc2)on1,2.0,5,-6.6%[38.3 µM],-9,-17,2.6
Cc1cccc(C)c1NC(=O)CSc1nnc([C@@H]2CCCN2C(=O)OC(C)(C)C)o1,-2.3,-1,-1.8%,-3,5,-0.1
CCOC(=O)[C@]12CCCC=C1N(Cc1ccco1)C(=O)[C@H](CC(=O)N1CCCCC1)C2,.,4,1.3%,.,.,-1.0
Cc1ccc(C(=O)N2CCN(Cc3ccccc3)CC2)cc1S(=O)(=O)N1CCOCC1,-3.4,-2,-0.3%,-13,25,0.0
Cc1ccc(S(=O)(=O)N/N=C/c2cccc3c2OCCO3)cc1,0.4,7,0.2%,-3,24,0.4
COCCNC(=O)CCn1c(=O)c2cc(OC)c(OC)cc2n(CC(=O)Nc2ccc(Cl)cc2F)c1=O,.,.,-0.3%,.,1,-0.2
COc1cc(Nc2nc(SCC(=O)c3ccc(Cl)c(Cl)c3)nc3ccccc23)cc(OC)c1,.,.,1.3%,.,16,4.1
Cc1ccc2c(c1)Oc1ccccc1C=C2C(=O)O,-4.6,0,0.5%,-8,20,-0.5
COc1ccc(CNC(=O)OCCN2CCN(S(=O)(=O)c3ccc(C)cc3)CCC2=O)cc1,1.5,5,-0.8%,-15,-30,-0.8
COc1ccc(Nc2nc3ccccc3n3cnnc23)cc1Cl,6.5,-25,-0.5%,3,1,1.2
Cc1ccc(CNC(=O)C(=O)NCCCn2ccnc2)cc1,-4.1,-1,-1.3%,-10,-2,0.2
Cc1ccc2nc(C(F)(F)F)c(C#N)c(N)c2c1,-2.9,-5,-2.2%[38.3 µM],-12,-8,-0.4
CCc1nc(C)cn1S(=O)(=O)c1cc(Br)ccc1OC,0.5,-3,1.1%,-4,25,0.2
CCCc1nc2ccccc2c(=O)n1CCc1ccccc1,-0.5,17,4.8%,-11,-23,0.0
CN(c1ccccc1)S(=O)(=O)c1ccc(NC(=O)c2nc(S(C)(=O)=O)ncc2Cl)cc1,-11,-2,-1.3%&-1.0%,-63,2&-12,4.2&3.6
COCCNC(=O)C(=O)Nc1cccc(Br)c1,0.5,3,-0.3%[38.3 µM],-6,-6,0.2
CC1CCN(C2=NC(=O)/C(=C/c3cccc(O)c3)S2)CC1,-0.6,-1,0.2%,-18,14,-1.8
C[C@@H]1C(=O)O[C@H]2[C@H]1CC[C@@]1(C)C(=O)C=C[C@@](C)(O)[C@H]21,-1.5,22,-0.2%,-2,-20,-0.7
NCCCC[C@@H]1NC(=O)c2cc([N+](=O)[O-])cc(F)c2NCCCC[C@@H](C(N)=O)NC(=O)[C@H](CCC(N)=O)NC1=O,-2.1,4,-0.1%,-11,-4,0.3
O=C(c1ccc(COc2ccccc2Br)o1)N1CCN(c2ccccn2)CC1,-1.5,-15,.,-25,9,1.1
COc1cc2cc(CN(Cc3cccnc3)C(=O)Nc3ccccc3F)c(=O)[nH]c2cc1OC,-5.2,4,10%,-2,-10,0.5
Cc1cc(C)nc(-n2nc(C)c3c2N(Cc2ccccc2)C(=O)CC3c2ccc(Cl)cc2)n1 (stereo not given),.,.,3.1%,.,-15,0.4
CC(=O)c1cccc(CN2CCC(n3nccc3NC(=O)c3ccc4c(c3)OCO4)CC2)c1,-1.5,1,-1.7%,-6,30,0.8
Cc1cc(C)c(C#N)c(SCc2nnc(-c3ccccc3[N+](=O)[O-])o2)n1,1.3,-8,6.4%,9,39,0.4
Cc1ccc(S(=O)(=O)Nc2nc(C)c(C(=O)NN)s2)cc1,-2.2,-1,0.5%,-4,18,-0.5
COc1ccc(C2C(C(=O)N3CCCC3)c3cc(OC)c(OC)cc3C(=O)N2C)cc1OC (stereo not given),-0.7,-1,0.2%,10,-3,0.0
CCCC(=O)Nc1ccc(-c2csc(NNC(C)=O)n2)cc1,0.4,-14,0.8%,1,-4,1.4
CCOC(=O)c1cc(OC(=O)Cc2ccc(OC)c(S(=O)(=O)N3CCOCC3)c2)cc(C(=O)OCC)c1,2.2,6,-0.3%,18,2,0.4
CC(C)(C)C(=O)Nc1cccc(S(=O)(=O)NC2=NCCC2)c1,4.2,8,-0.5%,-27,-4,0.1
S=c1nc(-c2ccccn2)c(-c2ccccn2)n[nH]1,5.6,-83*,0.8%,-1,.,-0.4
CCOc1cc(C(=O)Nc2cc(F)ccc2C)ccc1OCC(=O)N1CCOCC1,-0.8,1,-0.2%,-9,-6,-0.4
CCCSc1nc(N2CCOCC2)c2c(c1C#N)CC(C)(C)SC2,-2.2,-11,3.8%,-4,12,8.6
Cc1[nH]c2ccccc2c1SCCNC(=O)c1ccccc1F,.,.,0.6%,.,3,0.5
CC(C)C(C(=O)Nc1ccc2c(c1)OCCO2)N1C(=O)c2ccccc2C1=O (stereo not given),-4.2,-2,0.4%,-8,0,-1.0
CC1(c2nnnn2-c2ccc3c(c2)OCCO3)CCC(=O)N1CC1CCCCC1 (stereo not given),.,7,-0.7%,.,.,1.0
CCOC(=O)C1=CN(Cc2ccccc2)CCC1=O,-1.3,0,0.5%,-1,-19,0.1
COc1ccc(OCc2nnc(SCC(=O)N3CCCc4ccccc43)n2-c2ccc(C)cc2)cc1,2.4,-21,-0.3%,-2,-21,-0.6
CC(c1ccccc1)N1C(=O)CC(Sc2ncccc2C(=O)O)C1=O (stereo not given),0.8,1,0.1%[38.3 µM],-7,-7,0.8
O=C(CSCc1ccccc1)Nc1ccc(Cl)cn1,-3.7,6,-0.8%,-1,14,2.5
Cc1ccc(S(=O)(=O)NCCC2(C(C)C)CCOC(C)(C)C2)cc1 (stereo not given),-1.4,10,2.7%,2,4,0.7
CCN1CCN(CCOc2ccc(Br)cc2C)CC1,-7.1,-2,1.7%,-5,-3,-0.3
N#CC1=C(N)NC(SCC(=O)Nc2ccc(Br)cc2)=C(C#N)C12CCCCC2,-0.8,0,?,-36,16,0.1
O=C(C1CCCN(S(=O)(=O)c2ccc(F)cc2)C1)N(Cc1cccs1)C1CC1 (stereo not given),-2.9,7,1.1%,-5,71,0.6
COc1ccc(/C(N)=N/OC(=O)c2ccc(OC)c([N+](=O)[O-])c2)cc1OC,?,15,-1.2%,?,-3,-0.2
OC(CN1CCOCC1)C12CC3CC(CC(C3)C1)C2 (stereo not given),-0.8,2,1.8%[38.3 µM],-5,8,1.3
COC(=O)c1ccccc1NC(=O)CCCN1C(=O)C(c2ccccc2)Oc2cccnc21 (stereo not given),0.9,2,0.0%&-0.8%,5,10&4,-0.4&1.5
COc1ccc(C2=NN(C(C)=O)C(c3ccccc3)C2)cc1 (stereo not given),-0.3,-4,-0.7%,-6,-9,-0.3
Cc1ccc(N=C(N)N=C(N)N)cc1,-2.7,6,2.3%,-7,-10,0.7
CCn1cc(C(=O)NCCCN(CC(C)C)CC(C)C)c(=O)c2cc(S(=O)(=O)N3CCOCC3)ccc21,-3.3,2,0.2%,-5,9,-0.4

# Two entries drawn at random from the list so far, as already listed:
canonical_smiles,D2 ag,Six1-Eya2 inh,PINK1 modulator,D2 potentiator,TRPML1 blocker,TRPML1 ag
O=C(c1ccc(Cl)c(S(=O)(=O)N2CCOCC2)c1)N1CCCC1,-4.2,11,0.1%,5,24,0.9
COc1ccc(CNC(=O)OCCN2CCN(S(=O)(=O)c3ccc(C)cc3)CCC2=O)cc1,1.5,5,-0.8%,-15,-30,-0.8

# Other compounds
canonical_smiles,D2 ag,Six1-Eya2 inh,PINK1 modulator,D2 potentiator,TRPML1 blocker,TRPML1 ag
CC(C)Cc1nnc(NS(=O)(=O)c2ccc(Cl)cc2)s1,-0.1,-5,0.7%,1,68,-0.9
Oc1ccc(/C=N/n2cc(-c3ccccc3)[nH]c2=S)cc1,-1.6,-8,-0.3%,-12,12,1.0
CC(CS(=O)(=O)c1cccc2cccnc12)N1CCCCC1 (stereo not given),-0.4,-3,-1.3%,1,1,-1.0
Cc1nn(-c2ccc(Cl)cc2)c(Cl)c1/C=N/NC(=O)c1ccc(NS(=O)(=O)c2cccs2)cc1,0.3,-10,-0.6%,1,.,.
COc1ccc(-c2cc3nc4n(c(=O)c3s2)CCC4)cc1,-2.4,-2,5.0%[38.3 µM],-15,-5,-0.4
CC(C)c1ccc(Nc2c(-c3ccsc3)nc3ccc(Cl)cn23)cc1,.,.,-1.8%,.,-10,0.2
CCOC(=O)/C(Sc1nc(-c2ccccc2)cc(-c2ccccc2)c1C#N)=C(\C)O,-2.5,23,0.3%,-6,1,1.3
CCOc1ccccc1NS(=O)(=O)c1cnc(N)nc1,.,.,-0.6%,.,-16,-0.2

# Source: PubChem BioAssay (National Center for Advancing Translational Sciences (NCATS))
